Bioassay records as filed in PubChem BioAssay.
HIV TAR-Tat – TAR RNA-Tat peptide displacers, HIV-1, primary screen, biochemical, FRET, FAM/TAMRA-labeled Tat | 100,000 tested, 0.6% active | HIV-1 TAR RNA, Tat peptide displacement FRET; active compounds read high | z-score (concentration not given with the values);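 also: score is relative to mean and SD of negative controls; some compounds called inactive have numbers as strong as hits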
CDC25B-CDK2 inh – primary biochemical HTRF screen for blockers of M-phase inducer phosphatase 2 binding to CDK2/cyclin A. HTRF CDC25B-CDK2/CyclinA binding, anti-His/anti-Flag; active compounds read high. P30305+P24941. 94,000 tested, 0.72% active. z-score (no concentration beside the values). AID 1259370, 2018;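 also: score is relative to mean and SD of negative controls; strong numbers were not always called active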
Numbers without * were called inactive; nt = not tested or not shown.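 The calls were made as follows: active = z-score from 3 up in half or more of its runs; inactive = the rest.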

SMILES	HIV TAR-Tat	CDC25B-CDK2 inh
COc1cccc(NC(=O)CC2(CC3=NS(=O)(=O)c4ccccc4N3)CCCC2)c1	0.05	nt
COc1ccc(Br)cc1CNCCSc1nnnn1-c1ccccc1	1.4	0.47
COc1ccc(-c2nc3cc(N)ccc3o2)cc1OC	3.3	-0.18
CN(C)CCSc1nc2ccccc2n1CCc1ccccc1	nt	-0.24
COc1ccc(-c2noc(-c3nnn(-c4ccc(Cl)cc4)c3N)n2)cc1	-0.29	nt
COc1ccc(CCNc2ccc3nncn3n2)c(OC)c1	1.7	-1.4
Cn1nc([N+](=O)[O-])nc1Sc1nnc(-c2ccccc2Br)o1	-0.12	-2.6
O=C(Oc1cccc2[nH]ccc12)c1ccc(C(F)(F)F)cc1	nt	-1.8
O=C(Nc1ccc(Cl)cc1)C1CCN(c2ncnc3c2nc2n3CCCCC2)CC1	-1.1	nt
Cc1noc2ncnc(N3CCCC(C(=O)N4CCN(C(=O)c5ccco5)CC4)C3)c12 (configuration not stated)	0.49	nt
Cc1ccc2c(c1)-c1c(c(C(=O)N3CCOCC3)nn1C)CS2	-1.6	nt
Clc1ccc2[nH]c3c(c2c1)CN(Cc1ccccc1)CC3	nt	1.2
Nc1ccc(S(=O)(=O)Nc2ccccn2)cc1	-0.53	nt
CCNc1nc(NCc2ccccc2C)c2cnn(C)c2n1	1.1	nt
O=C(NCc1ccc2c(c1)OCO2)c1cnn2c(C(F)F)cc(-c3ccccc3)nc12	1	-1.3
CC(=O)Nc1cc(C(F)(F)F)cc(C(F)(F)F)c1	nt	-2.6
O=C1c2ccccc2C(Nc2ccccc2)N1c1cccnc1 (configuration not stated)	0.5	-0.45
CC(C)(C)c1csc(NC(=O)CS(=O)(=O)c2ccc(F)cc2)n1	0.63	nt
Cc1ccc(Nc2nc3ccccc3n3c(C)nnc23)c(Br)c1	0.23	-0.24
O=C(Nc1c(C(=O)N2CCN(C(=O)c3ccco3)CC2)oc2ccccc12)c1cccs1	1.1	nt
Cc1nc2nc[nH]n2c(=O)c1NS(C)(=O)=O	2.5	-2.9
O=C(O[C@@H]1Cc2c(O)cc(O)cc2O[C@@H]1c1cc(=O)c(O)c2c(O)c(O)cc([C@H]3Oc4cc(O)cc(O)c4C[C@H]3O)c2c1)c1cc(O)c(O)c(O)c1	30*	nt
N#CC12C(N)=NC3(OCCO3)C1(C#N)C2c1cccc(Br)c1 (configuration not stated)	nt	-0.87
C=CCn1c(N)c(C(=O)N/N=C/c2ccc(Cl)cc2Cl)sc1=S	nt	-3.4
Cc1ccc(SCC(=O)OCc2cc(=O)n3nc(CC(C)C)sc3n2)cc1	-0.15	nt
CN(CCCNS(=O)(=O)c1cc2c(cc1Cl)NC(=O)CO2)Cc1ccccc1	-2.2	nt
Cc1cc(C)nc(NS(=O)(=O)c2ccc(Nc3nc(-c4c(C)nc5sccn45)cs3)cc2)n1	nt	-1.9
COc1ccc(S(=O)(=O)c2cn(C)c3cc(N4CCOCC4)c(F)cc3c2=O)cc1	0.75	nt
O=C(CCc1nnc2ccc(N3CCOCC3)nn12)N1CCCC1	0.64	nt
Cc1cccc(CN[C@H]2CS(=O)(=O)C[C@@H]2S(=O)(=O)c2ccccc2)c1	1.5	0.67
COC(=O)c1c(SCC(=O)Nc2cc(OC)cc(OC)c2)[nH]c2ccc(Cl)cc2c1=O	-7.8	nt
CNC(=O)c1nnsc1N1CCCCC1	0.75	nt
CCC(C(=O)NC1CC1)N1C(=O)CCn2nc(C)cc21 (configuration not stated)	0.42	nt
Cc1cc(S(=O)(=O)Nc2c(C)nc3nc[nH]n3c2=O)ccc1F	1.3	-1.3
COc1ccc2c(c1)C=C(C(=O)NC1CCCCC1)C=CO2	-0.64	0.11
COc1cc(C2C(C#N)=C(N)OC3=C2C(=O)CC(C)(C)C3)cc(OC)c1OC(C)=O (configuration not stated)	nt	-2.7
O=C(NC1COc2ccccc2C1)N1CCN(C2CCCCC2)CC1 (configuration not stated)	0.39	nt
CC(C)CCN1C(=O)c2cc(-c3cccs3)nn2CC1(C)C(=O)NC1CCCCC1 (configuration not stated)	3.2	nt
CC(c1ccccc1)n1c(C2CC(=O)N(c3ccc(F)cc3)C2)nc2ccccc21 (configuration not stated)	2	-3.4
Clc1cccc(-c2nnc(CN3CCN(c4ccccn4)CC3)o2)c1	1	-1

2 entries from above, as labelled records.
CC(C)CCN1C(=O)c2cc(-c3cccs3)nn2CC1(C)C(=O)NC1CCCCC1 (configuration not stated)
  HIV TAR-Tat: 3.2
  CDC25B-CDK2 inh: nt
COc1cc(C2C(C#N)=C(N)OC3=C2C(=O)CC(C)(C)C3)cc(OC)c1OC(C)=O (configuration not stated)
  HIV TAR-Tat: nt
  CDC25B-CDK2 inh: -2.7

Next part:
SMILES	HIV TAR-Tat	CDC25B-CDK2 inh
O=C(CCC1CCCC1)N1CCC(n2nc(-c3ccccc3)oc2=O)CC1	0.32	0.03
CCCCN1C(SCc2cc(=O)n3ccccc3n2)=NS(=O)(=O)c2ccccc21	0.91	nt
CCCCNc1cc(=O)n(C)c(=O)[nH]1	-0.17	-0.64
CCCC(NC(=O)c1noc(C)c1Cn1nc(C)cc1C)c1cccs1 (configuration not stated)	0.38	nt
CC(C)C1Cc2c(sc3nc(SCC(=O)Nc4ccccn4)nc(N)c23)CO1 (configuration not stated)	1.4	-5.5
O=C(C(=O)N1CC=C(c2ccccc2)CC1)c1c[nH]c2ccccc12	-0.94	-1.9
CCOc1ccccc1Nc1nncc(=O)[nH]1	0.38	0.98
Cc1ccsc1C1N=C(N)Nc2nc3ccccc3n21 (configuration not stated)	-0.79	-2
Cc1cc(C)cc(N2C(=O)N(Cc3c(F)cccc3Cl)C3CS(=O)(=O)CC32)c1 (configuration not stated)	0.01	nt
Cc1cc(C)cc(NC(=O)c2c(C)oc3nc(C)nc(N4CCOCC4)c23)c1	-0.19	nt
COc1cc(C)c(C(C)C)cc1S(=O)(=O)N1CCN(c2ccc(F)cc2)CC1	2.7	0.35
CCOC(=O)C1=C(C)N=C2SCCC(=O)N2C1c1ccccc1Cl (configuration not stated)	0.87	-1.7
CO[C@H]1C[C@@H]2CC[C@@H](C)[C@@](O)(O2)C(=O)C(=O)N2CCCC[C@@H]2C(=O)OC([C@H](C)C[C@@H]2CC[C@@H](OC(=O)C(C)(CO)CO)[C@H](OC)C2)CC(=O)[C@H](C)/C=C(\C)[C@@H](O)[C@@H](OC)C(=O)[C@H](C)C[C@H](C)/C=C/C=C/C=C/1C (some centres not stated)	nt	-3
CCCCN(C)c1ncnc2c1sc1nc3c(cc12)COC(C)(C)C3	-1.1	nt
Cc1coc2cc3oc(=O)cc(C)c3cc12	nt	0.82
Cc1ccnc(NC(=O)CCc2nnc3ccc(NCc4ccc5c(c4)OCO5)nn23)c1	1.4	nt
CC1=C(C(=O)N(CC(=O)NC2CC2)c2ccc(Cl)cc2)SCCO1	-0.69	nt
O=C(NCCc1cccs1)C1=Cc2cc(Br)ccc2OC1	-0.39	nt
COc1ccc(C2CC(=O)Nc3c2c(=O)nc(SC)n3C)cc1Br (configuration not stated)	-0.12	-0.08
Cn1c(=O)c(=O)n(C)c2cc(N3CCCCC3)c(NS(=O)(=O)c3ccc(F)cc3)cc21	0.78	nt
COc1ccc(OC)c(N2C(=O)C3CCCCC3C2=O)c1 (configuration not stated)	nt	-2.5
CN(c1ccc(F)cc1)S(=O)(=O)N1CCCC(C(=O)NC2CCCC2)C1 (configuration not stated)	4.7	nt
N#C/C(=C\c1c(F)cccc1Cl)c1cccc(Cl)c1	nt	-0.38
O=C(CN1CCN(C(=O)c2ccco2)CC1)Nc1ccc2c(c1)OCO2	1.1	nt
O=S(=O)(c1ccc(-c2noc(COc3ccc(Cl)cc3)n2)cc1)N1CCOCC1	1.6	nt
O=c1[nH]cc(N2CCCCCC2)c(=O)[nH]1	nt	-2.1
N#Cc1cc2c(=O)n3ccccc3nc2n(CCN2CCOCC2)c1=O	1.6	-0.92
CCOC(=O)c1noc2ncnc(N3CCN(c4ccc(F)cc4)CC3)c12	-1.1	nt
CCOc1ccc(-c2n[nH]c(=S)c3ccccc23)cc1	-0.2	0.46
COc1cccc(N2C(=O)c3cccnc3C2Nc2cc(OC)ccc2OC)c1 (configuration not stated)	1	nt
CCCN(CCC)CCSc1nc(O)c(C(C)C)c(=O)[nH]1	1.3	-1.5
CCOC(=O)c1cnc(SCC(=O)N2CCc3ccccc32)nc1N	-1.6	-1.7
COc1ccc(CCNc2ncnc3c2nnn3C)cc1	1.4	nt
Cc1ccc(S(=O)(=O)c2nc(-c3cccs3)oc2N2CCOCC2)cc1	-0.46	0.01
Nc1nc(N)c2c(Oc3ccc(F)cc3)cccc2n1	nt	-1.5
CCOc1c(C)cc(S(=O)(=O)NCc2cccnc2)c(C)c1C	-0.68	-0.39
CCC1CCCCN1Cc1c(C)[nH]c2ccc(Br)cc2c1=O (configuration not stated)	0.08	0.68
Cc1onc(-c2c(Cl)cccc2Cl)c1C(=O)NCc1cc(F)cc2c1OCOC2	nt	-0.61
CC(C)C(=O)Nc1onc2c1CCCC2	0.07	-1.9
CCOC(=O)c1oc2c(OC)c(O)cc(O)c2c(=O)c1-c1cc(OC)c(OC)c(OC)c1	1.8	nt
O=C(Cn1cc(C(=O)c2ccc(Cl)cc2)c(=O)c2cc3c(cc21)OCO3)Nc1ccc(Cl)cc1	2.5	-1.6
Cc1cc(N/N=C/C=C/c2ccccc2)c([N+](=O)[O-])cc1[N+](=O)[O-]	nt	-2.5
NNC(=O)COc1ccc(OC(F)(F)F)cc1	nt	0.02
COCCCN1CC23C=CC(O2)C(C(=O)O)C3C1=O (configuration not stated)	2.3	-1
N#CC1CCN(C(=O)c2ccc3c(Cl)c4c(nc3c2)CCCC4)CC1	-0.09	-1.7
CNc1ccc2cccc(Oc3ccc4cccc(O)c4n3)c2n1	nt	-1.6
COc1nc2ccccc2cc1-c1noc(-c2ccccc2F)n1	2.4	-0.26
Cc1ccc(CN2C(=O)N(Cc3ccccc3)S(=O)(=O)c3ccccc32)cc1	0.5	nt
O=C(CSCCS(=O)(=O)c1ccc(Cl)cc1)N1CCCCC1	nt	-0.32
COCCCNC(=O)N1Cc2c(sc3c2CCCC3)-n2cccc2C1c1ccc(OC)cc1 (configuration not stated)	-0.48	nt

Part of the list above in order of molar mass, descending:
SMILES	HIV TAR-Tat	CDC25B-CDK2 inh
COCCCNC(=O)N1Cc2c(sc3c2CCCC3)-n2cccc2C1c1ccc(OC)cc1 (configuration not stated)	-0.48	nt
O=C(CSCCS(=O)(=O)c1ccc(Cl)cc1)N1CCCCC1	nt	-0.32
COCCCN1CC23C=CC(O2)C(C(=O)O)C3C1=O (configuration not stated)	2.3	-1

Taken from the entries so far for reference:
SMILES	HIV TAR-Tat	CDC25B-CDK2 inh
Cc1ccc(CN2C(=O)N(Cc3ccccc3)S(=O)(=O)c3ccccc32)cc1	0.5	nt
O=C(CSCCS(=O)(=O)c1ccc(Cl)cc1)N1CCCCC1	nt	-0.32
COCCCNC(=O)N1Cc2c(sc3c2CCCC3)-n2cccc2C1c1ccc(OC)cc1 (configuration not stated)	-0.48	nt

Following part.
SMILES	HIV TAR-Tat	CDC25B-CDK2 inh
CSc1ccc(C2N=C(N)Nc3nc4ccccc4n32)cc1 (configuration not stated)	-0.6	-3
O=C(O)Cn1c(=O)c(=O)n(Cc2ccccc2)c2ncccc21	1.4	-0.51
CN(CC(=O)NCc1cccs1)S(=O)(=O)c1cc2c(cc1Cl)NC(=O)CO2	-0.45	nt
Cc1ccc(C2=NNC3(S2)C(=O)Nc2ccc(Br)cc23)cc1 (configuration not stated)	nt	-2.1
Cc1cccc(Cn2cc(C(=O)c3ccc(F)cc3)c(=O)c3cc4c(cc32)OCO4)c1	0.21	-0.04
Cc1ccc(-c2c(N(C)C3CCCC(C)C3C)c(=O)c2=O)cc1 (configuration not stated)	1.7	nt
COc1ccc(-c2cc(C(=O)N3CCCC3)nn2C2CCS(=O)(=O)C2)cc1 (configuration not stated)	0.03	-2.5
CCS(=O)CCSc1nc(-c2cccs2)cc(-c2ccccc2)c1C#N (configuration not stated)	nt	-1.7
C=CCN=c1scc(-c2ccc3c(c2)OCCO3)n1NC(=O)c1cccc(Br)c1	nt	-2.4
CCCCOC(=O)CCc1c(C)n[nH]c1C	nt	-2.6
N#Cc1cc2c(=O)n3ccccc3nc2n(Cc2ccc3c(c2)OCO3)c1=O	0.65	-1.2
CC1Sc2ccc(S(=O)(=O)NC(C)(C)C)cc2NC1=O (configuration not stated)	1.8	nt
C=C(C)Cn1c(N2CCOCC2)nc2c1c(=O)n(C)c(=O)n2C	-1.2	0.1
O=C(NCc1cn2ccsc2n1)C1CCCCC1	3.4	-0.67
Brc1ccc(Nc2nc(-c3ccncc3)cs2)cc1	1.6	0.22
COc1ccc(C2=NN(CC(=O)NCCN(C)C)C(=O)CC2)cc1	nt	0.43
CC12CCC(C(=O)N3CCCC3)(CC1=O)C2(C)C (configuration not stated)	nt	6.5
CCOC(=O)c1c(C)oc2nc(C)nc(NCCc3ccco3)c12	-0.63	nt
CC1(C)CC(=O)C2=C(C1)NC(=O)CC2C(=O)Nc1ccc(F)cc1 (configuration not stated)	-0.48	-1.7
CCC(=O)Nc1nn2c(C)nnc2s1	1.7	-0.11
CCc1cc2c(Nc3cc(Cl)ccc3OC)ncnc2s1	2	nt
Cn1ncc2c(NCc3ccccc3)nc(N3CCN(CCO)CC3)nc21	0.76	nt
CC12CCC(=O)C=C1C[C@@H](C(=O)OC1CCCC1)C1C2CCC2(C)C1CC[C@@]21CCC(=O)O1 (some centres not stated)	nt	-0.75
CC1CN(C2CCN(C3CC4CCC3C4)CC2)CC(C)O1 (configuration not stated)	nt	-1.9
CC(Cc1ccc(O)c(O)c1)(NN)C(=O)O (configuration not stated)	-0.92	nt
COc1ccc(-c2nc(-c3c(C)[nH]c4ccccc34)cs2)cc1OC	nt	-1.1
